Beta apoptosis: inhibitors of cytokine-induced beta cell apoptosis, primary screen, luminescence; INS-1E cytokine-induced death, ATP luminescence, 48 h; percent of positive-control rescue, neutral wells zero; protection from apoptosis, % (test concentration not listed); 300,000 tested, 0.8% active; AID 435005, 2010;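 active = all replicates at 75% or more, or half of them and the mean; inconclusive = half reach 75% but not the mean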;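 also: 0% = cytokine-treated negative control wells and 100% = positive control rescue; higher means more ATP so stronger rescue from cytokine killing; wells of about 40 µL received 100 nL stock; the first replicate is given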
AF4-AF9 inh: inhibitors of AF4 peptide binding to AF9, primary screen, biochemical, AlphaScreen, biotin-AF4 peptide, FLAG-AF9, single point | Protein AF-9 (Homo sapiens), P42568 | inhibition, % at 10 µM | 350,000 tested, 0.47% active;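 active = every replicate reaching a set inhibition limit, whatever the replicate mean, cut at about 25% in these data; inconclusive = mean inhibition reaches that limit but some replicates miss it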;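 also: 0% = plate neutral control median and 100% = total signal loss; the record names both 10 and 1 µM as test concentration; the first replicate is given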
Target sequence (P42568 whole entry, looked up): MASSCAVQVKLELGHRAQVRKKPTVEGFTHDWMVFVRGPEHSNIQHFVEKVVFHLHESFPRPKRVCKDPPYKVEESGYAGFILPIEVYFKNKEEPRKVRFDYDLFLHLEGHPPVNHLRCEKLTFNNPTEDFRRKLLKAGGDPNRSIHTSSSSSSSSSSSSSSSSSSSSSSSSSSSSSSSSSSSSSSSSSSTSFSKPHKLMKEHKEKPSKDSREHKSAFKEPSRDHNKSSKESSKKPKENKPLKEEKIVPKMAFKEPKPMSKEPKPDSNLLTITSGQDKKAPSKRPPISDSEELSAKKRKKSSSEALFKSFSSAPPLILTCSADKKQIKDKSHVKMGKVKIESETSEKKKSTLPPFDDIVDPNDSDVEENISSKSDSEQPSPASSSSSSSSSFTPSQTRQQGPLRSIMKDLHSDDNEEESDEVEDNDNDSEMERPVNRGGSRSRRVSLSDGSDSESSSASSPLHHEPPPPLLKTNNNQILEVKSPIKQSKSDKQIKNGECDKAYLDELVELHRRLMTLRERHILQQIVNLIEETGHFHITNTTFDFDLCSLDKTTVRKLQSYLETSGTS
A1 inh: caspase 3/7 activation in MEF A1-2A-BIM cells, primary screen, A1 inhibitor project, cell-based, luminescence, HTS; 330,000 tested, 0.066% active; Caspase-Glo 3/7 luminescence, 3 h; percent of clofoctol response, vehicle zero; caspase activation, % (no concentration beside the values);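 active = over half of replicate activation scores above 10%, or exactly half above 10 with the replicate mean above 10; inconclusive = replicate mean below 10 yet half the replicates above 10; inactive = over half of replicates below 10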;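 also: wells of about 30 µL received 50 nL stock; many hits fall short of the cut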
Ecoli rRNA inh: reduced GFP signal of wild-type E. coli, primary screen, bacterial rRNA inhibitor project, GFP/RFP fluorescence, OD600, single point; AID 720706, 2013; 350,000 tested, 1.6% active; E. coli WT GFP vs humanized-ribosome RFP mutants, 24 h; active compounds read low; DMSO median 0, no signal -100; GFP signal change (wild-type ribosome), % (no concentration beside the values);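 active = significant combined selectivity score with lowered wild-type GFP, culture density cut under 30%, mutant RFP and density less affected; inactive = any of these conditions unmet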; also: one replicate is shown; some compounds called inactive have numbers as strong as hits
Vif TR-FRET: inhibitors of Vif binding to APOBEC3G peptide, primary screen, biochemical, TR-FRET, GST-Vif 1-94, biotin-A3G peptide, dose response retest (AID 1117319); 260,000 tested, 0.57% active; Virion infectivity factor (Human immunodeficiency virus type 1 group M subtype B (isolate …; TR-FRET GST-Vif / biotin-A3G peptide binding; higher % means a stronger effect; test concentration not given here; strong numbers were not always called active; inhibition, %; hits with a dose series show IC50 in µM;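 active = above the screen mean plus three standard deviations and confirmed in dose response; inconclusive = results disagree or hit not tested in dose response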;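 also: Vif residues 1-94 fused to GST binding biotinylated APOBEC3G peptide 110-148; 0% = full assay without inhibitor and 100% = GST in place of GST-Vif; retest series ran down from 100 µM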
Calb FLC: C. albicans growth inhibition with fluconazole, primary screen, CaCi-2 strain, Alamar Blue fluorescence; C. albicans CaCi-2 (fluconazole-resistant clinical isolate) + fluconazole, 48 h; growth inhibition, % (no concentration beside the values); 300,000 tested, 0.57% active;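 active = most replicates above 75%; inconclusive = exactly half above 75%; inactive = most below 75%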;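 also: all wells also contain fluconazole at 8 µg/ml as a sub-toxic cotreatment; 0% = median of DMSO wells and 100% = median of geldanamycin control wells; wells of about 8 µL received 7.5 nL stock; the first replicate is given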
RanGTP-Imp inh: inhibitors of RanGTP-importin-beta interaction, primary screen, biochemical, FRET, CFP-Ran, YFP-importin-beta, homogeneous | Ran GTPase (GTP-bound) - importin-beta complex | cell-free CFP-Ran/YFP-importin-beta FRET ratio | inhibition, % (no concentration beside the values) | 300,000 tested, 1.1% active | AID 2216, 2009;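 active = most replicates above 15%; inconclusive = exactly half above 15%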;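 also: 0% = DMSO wells and 100% = Ran loaded with GDP instead of GTP; wells of about 40 µL received 100 nL stock; the first replicate is given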
T cruzi inh: inhibitors of intracellular T. cruzi growth, primary screen, luminescence, NIH3T3 host cells. T. cruzi beta-gal in NIH3T3, 90 h. inhibition, % (no concentration beside the values). 300,000 tested, 1.4% active. AID 1885, 2009;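 active = mean inhibition across valid replicates above about 55%, limit read from the data; inconclusive = mean below that limit but half or more replicates reach it; inactive = mean below it, under half of replicates reach it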;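 also: signal also drops with host cell toxicity which is not excluded here; 0% = plate median of DMSO wells and 100% = zero luminescence signal; higher percent means less beta-gal luminescence so fewer parasites; stock transfer was 50 nL into about 50 µL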
Ecoli rRNA inh OD600: also measured in Ecoli rRNA inh; calls as there; OD600 change, %; measured here: OD600 growth;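 optical density of the mix in the first replicate; 0 = DMSO median and -100 = no signal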
Ecoli rRNA inh RFP: recorded beside Ecoli rRNA inh, whose call it bears; RFP signal change, %; measured here: RFP humanized mutant strains;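 first replicate; 0 = DMSO median and -100 = no signal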
Numbers without * were called inactive; ? = inconclusive; · = not tested or not shown; & = joins results of further samples. Not all compounds are listed; count on the stated rates, not on these rows.

SMILES | Beta apoptosis | AF4-AF9 inh | A1 inh | Ecoli rRNA inh | Ecoli rRNA inh OD600 | Ecoli rRNA inh RFP | Vif TR-FRET | Calb FLC | RanGTP-Imp inh | T cruzi inh
CS(=O)(=O)N(CC(=O)Nc1ccc(C(N)=O)cc1)C1CCCCC1 | -4 | · | -0.3 | · | · | · | -1% | -8 | -1.5 | -10
O=C1CNC(=S)N1c1nc(-c2ccccc2)cs1 | -3 | -5.3 | -8.5 | 6 | 3 | 1.5 | · | 54 | 1.4 | -6
CC(=O)c1sc(NC(=O)CCCc2nc3ccccc3c(=O)[nH]2)nc1-c1ccccc1 | -3 | -2.5 | 0.2 | 4 | 3 | -1.8 | -9% | · | · | ·
CCOC(=O)N1CCC(Nc2nc3ccccc3n3cnnc23)CC1 | · | -5.3 | -0.5 | 3 | 9 | -4.0 | · | -2 | 6.0 | 13
COc1ccc(Cc2nc3ccccc3c(=O)n2N)cc1OC | · | -2.1 | 0.5 | 1 | 4 | 1.4 | · | -3 | -3.6 | -11
COc1ccc(C(=O)Nc2ccnn2C2CCN(Cc3cn(C)nc3C)CC2)cc1 | -8 | 1.2 | 0.4 | 10 | 22 | 3.0 | 12% | 2 | 1.2 | -3
COc1ccccc1C(=O)NNC(=O)c1nn(Cc2ccccc2)c(=O)c2ccccc12 | 11 | -0.6 | -1.4 | -24* | 17* | -0.7* | -3% | 3 | 4.7 | 14
COc1ccccc1NC(=O)c1ccccc1NC(=O)c1ccccc1C(=O)O | -6 | -16 | -0.1 | 1 | 2 | 1.3 | · | 4 | -1.2 | -14
CN(c1ccccc1)S(=O)(=O)c1cc(C(=O)OCC(=O)N2CCN(C(=O)c3ccco3)CC2)ccc1Cl | -10 | 0.2 | -0.7 | · | · | · | -6% | -17 | 1.6 | -5
COc1cc(CC(=O)O)ccc1O | -6 | -6.1 | -0.5 | -22 | -34 | -6.7 | 5% | · | -1.7 | -9
CCCCN(C)CCNC(=O)CN1C(=O)CSc2ccc(S(=O)(=O)N3CCOCC3)cc21 | 0 | -2.7 | 1.0 | 7 | 8 | -0.9 | 0% | 12 | 2.4 | 8
Cc1ccc(CCNS(=O)(=O)c2cc3c(cc2Cl)NC(=O)CO3)cc1 | -5 | -4.4 | 0.1 | -11 | -30 | -2.4 | · | 7 | -4.0 | 11
CCOC(=O)N1CCC(NC(=O)C2CCCN(c3nc4ccccc4o3)C2)CC1 (centres undefined) | 4 | · | 0.3 | · | · | · | -5% | -10 | -3.0 | 12
Cc1cccc(NC(=O)CNC(=O)COC(=O)C2CC2C)c1C (centres undefined) | 2 | -0.3 | 0.7 | 8 | 11 | -1.9 | · | · | · | ·
CN(C)S(=O)(=O)c1cccc(N2C(=O)CC3(CCCCC3)CC2=O)c1 | 4 | -0.5 | 0.9 | 2 | -4 | -5.6 | 7% | -7 | ? | 12
COc1ccc(C(=O)NC(=S)Nc2cccc3nc(C)ccc23)cc1OC | 4 | -2.4 | -0.2 | -6 | 2 | 2.4 | -4% | 1 | 8.3 | -29
CN(Cc1c(C(=O)N/N=C/c2c(F)cccc2Cl)nnn1-c1nonc1N)c1ccccc1 | -4 | -0.1 | -0.1 | -22* | -9.5* | 6.0* | · | · | 6.4 | -3
OCC(Cc1ccccc1)Nc1c2ccccc2nc2ccccc12 (centres undefined) | 19 | · | -0.6 | · | · | · | 4% | 1 | 118* | -43
C=C(C)CC1N(c2cccc(OC)c2)C(=O)C2C(C(=O)O)C3C=CC21O3 (centres undefined) | -1 | 2.2 | 1.2 | 8 | 4 | -0.1 | 4% | -6 | 3.7 | -20
Oc1ccc2c(c1)c1c3n2CCNC3CCC1 (centres undefined) | -1 | · | 0.9 | 5 | 6 | -0.3 | -4% | 15 | -4.3 | 13
Cc1ccc(N2C(=O)CS(=O)C(c3ccccc3)C2=O)cc1C (centres undefined) | 0 | 14 | -1.9 | -11 | -12 | -1.6 | 6% | 7 | -0.7 | 12
Cn1c(N)c(C(C[N+](=O)[O-])c2c(F)cccc2Cl)c(=O)n(C)c1=O (centres undefined) | · | -2.2 | -0.3 | 0 | 3 | -0.9 | -5% | -2 | 1.1 | 7
Clc1ccc(Sc2ccccn2)cc1 | -1 | -13 | 0.1 | 4 | 8 | -1.3 | · | 1 | 4.4 | -6
CC1CCN(C(=O)C2CCC(=O)N(Cc3ccc(Cl)cc3)C2)CC1 (centres undefined) | 2 | -22 | 0.5 | -1 | -6 | -0.2 | · | 36 | 1.6 | -14
Cc1cccc(C(=O)NCC(=O)NCC(c2cccs2)N2CCOCC2)c1 (centres undefined) | 7 | 0.8 | 1.1 | 3 | 9 | -2.2 | 3% | -14 | 6.9 | -2
O=C(O)C1CC1C(=O)Nc1cc(F)ccc1F (centres undefined) | -9 | 0.2 | 0.2 | 12 | 11 | 2.7 | -8% | -1 | 6.2 | -17
CCCCCN(C(=O)CCC(=O)OCc1ccccc1F)c1c(N)n(CCCC)c(=O)[nH]c1=O | -2 | -9.6 | -0.6 | 1 | 0 | 0.2 | -7% | -1 | 3.5 | 9
COc1cc(S(=O)(=O)N(C)Cc2ccc3c(c2)OCCO3)ccc1NC(C)=O | 1 | 2.1 | -1.1 | -4 | -1 | 1.4 | -1% | · | · | ·
COc1ccc(S(=O)(=O)N2CCc3cc4c(cc3C2C)OCCCO4)cc1 (centres undefined) | 0 | -1.0 | -0.5 | -21 | -37 | -0.4 | · | -4 | -0.9 | 17
O=C(O)C1Nc2c(C(=O)N3CCOCC3)cccc2C2C=CCC12 (centres undefined) | -4 | · | -0.5 | · | · | · | 2µM* | 10 | 1.4 | ·
CCOC(=O)Nc1ccc(C(=O)Oc2ccccc2)c(O)c1 | 1 | -3.5 | -0.2 | -32* | -7.3* | -7.1* | -1% | 9 | ? | -9
CC(C)(C)c1ccc(C(=O)Nc2cnccn2)cc1 | -5 | · | -5.4 | · | · | · | -6% | 4 | 2.9 | 10
C1=Nc2c(Nc3ccccc3)ncnc2Oc2ccccc21 | 2 | · | 0.5 | · | · | · | 4% | 9 | -0.4 | 18
COc1ccccc1NC(=O)COC(=O)C1C2CC3OC(=O)C1C3C2 (centres undefined) | -1 | -4.3 | 0.4 | 3 | 1 | -2.6 | -8% | 2 | 2.6 | 3
COc1ccc(CC(=O)c2cc(OC)c(OC)cc2CC(=O)O)cc1OC | -2 | · | 0.0 | · | · | · | -7% | -5 | ? | -4
COc1ccccc1NC(=O)NC(=O)N(C(C)C)S(C)(=O)=O | -5 | · | 0.6 | · | · | · | 3% | -7 | 0.3 | 7
CCC(=O)N1CCc2cc(Br)cc(S(=O)(=O)NCCN3CCCC3)c21 | -6 | -3.6 | 0.6 | 4 | 12 | 0.6 | -4% | 1 | 0.7 | -6
Cc1ccc[n+](CC(=O)Nc2ccc([N+](=O)[O-])cc2)c1 | · | 4.7 | 0.9 | 16 | 14 | 0.0 | · | 22 | 4.1 | 5
COc1ccccc1CC(=O)Nc1ccc(S(=O)(=O)N2CCCC2)cc1 | 0 | -0.2 | 0.7 | 5 | 3 | 0.6 | · | -6 | 1.5 | -9
Cc1ccc(OCCNC(=O)c2cccc(Oc3ccc(C(F)(F)F)cc3[N+](=O)[O-])c2)cc1 | -4 | · | -0.1 | · | · | · | · | -4 | -3.6 | -3
CC(=O)NC(Cc1ccccc1C)C(=O)NC1CCN(c2ncccc2[N+](=O)[O-])CC1 (centres undefined) | -6 | 3.3 | 1.2 | 0 | -1 | -1.1 | · | 26 | 2.3 | 0
CC(=O)NCCc1nc2cc(NC(=O)COc3ccc(C)cc3)ccc2n1C | 2 | -6.2 | 0.0 | -1 | -3 | -3.4 | -1% | -6 | -1.2 | -5
Cc1cc(C)n(-c2cc(-n3nc(C)cc3C)ncn2)n1 | -4 | · | 0.0 | · | · | · | 2% | 7 | -0.8 | -15
Nc1[nH]c(N=NC(=O)c2ccccc2O)c2ccccc12 | 7 | · | 0.1 | · | · | · | · | 3 | ? | -9
CCN(CC)C(=O)C1CCCc2c1[nH]c1ccc(Cl)cc21 (centres undefined) | -1 | 3.7 | 0.7 | -21 | -35 | -11 | · | 16 | -17 | -12
CCc1ccccc1OCCCCN1CCCCC1 | 2 | -0.9 | 0.7 | 14 | 12 | 2.8 | · | -28 | -4.4 | 26
O=C(CCc1nc2sc3c(c2c(=O)[nH]1)CCCC3)NCC(=O)Nc1ccccc1Br | -8 | -4.3 | -0.5 | 8 | 12 | 8.3 | · | · | · | ·
CCOC(=O)C1CN(S(=O)(=O)c2ccc(OC)cc2)c2cc(S(=O)(=O)CC)ccc2O1 (centres undefined) | -7 | · | 0.2 | · | · | · | -6% | -7 | 0.8 | -10
Cc1ccc(C(=O)NCCSC2CCCCC2)cc1S(=O)(=O)Nc1ccccc1 | 13 | -26 | 0.6 | -20 | -26 | 0.0 | 2% | 14 | -4.2 | 12
COC(=O)c1ccc2c(=O)n(CCCCCC(=O)NCc3ccc4c(c3)OCO4)c(=O)[nH]c2c1 | -5 | · | -0.6 | · | · | · | 1%&3% | -4 | 35* | -1
O=C(CSc1ccc2c(c1)OCCO2)NC(=O)Cc1ccccc1 | 0 | -3.4 | 0.4 | -12 | -8 | -1.1 | -6% | 4 | -6.4 | -22
COC(CN1C(=O)C(=O)/C(=C(/O)c2ccccc2)C1c1ccccn1)OC (centres undefined) | -4 | -8.8 | 0.3 | 4 | 6 | 0.9 | · | -5 | 3.3 | -12

Arranged by heavy-atom count (highest first): some entries from above.
SMILES | Beta apoptosis | AF4-AF9 inh | A1 inh | Ecoli rRNA inh | Ecoli rRNA inh OD600 | Ecoli rRNA inh RFP | Vif TR-FRET | Calb FLC | RanGTP-Imp inh | T cruzi inh
COC(=O)c1ccc2c(=O)n(CCCCCC(=O)NCc3ccc4c(c3)OCO4)c(=O)[nH]c2c1 | -5 | · | -0.6 | · | · | · | 1%&3% | -4 | 35* | -1
O=C(CCc1nc2sc3c(c2c(=O)[nH]1)CCCC3)NCC(=O)Nc1ccccc1Br | -8 | -4.3 | -0.5 | 8 | 12 | 8.3 | · | · | · | ·
Cc1ccc(C(=O)NCCSC2CCCCC2)cc1S(=O)(=O)Nc1ccccc1 | 13 | -26 | 0.6 | -20 | -26 | 0.0 | 2% | 14 | -4.2 | 12
CCc1ccccc1OCCCCN1CCCCC1 | 2 | -0.9 | 0.7 | 14 | 12 | 2.8 | · | -28 | -4.4 | 26
